CtBP-E1A inh = inhibitors of CtBP/E1A interaction | AID 651724 | activity change, % (test concentration not listed) | AlphaScreen GST-E1A/His-CtBP binding, 1536-well; active compounds read low; control for the full effect not named in the record | actives 0.49% (n = 340,000); in the data active means activity change below about -65%; inconclusive means about -30% to -65%; inactive means above about -30%; further: on the % scale 0 is the no-effect control and ±100 the full control effect
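Steps: dispense buffer (Tris pH 8.0, NaCl 300 mM, TCEP 1 mM, BSA, Tween 20); add 5X protein mix (GST-E1A, His-CtBP, 125 nM each); pin 23 nL compound; 2 h at 37 °C, dark; add 5X beads (50 ug/mL); 1 h; read.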
gsp agonist = activates gsp, the McCune-Albright syndrome mutation | AID 624287 | actives 0.13% (n = 340,000) | gsp mutant cells, cAMP HTRF, 30 min; control for the full effect not named in the record | Potency, µM (top dose mostly 76.9 µM), for the others: top-dose activation (cAMP increase), usual class: activators; active = well fitted activation curve with a large enough effect; inconclusive = small, poorly fitted or top-dose-only effect, or another doubt; inactive = no such curve, though single readings can be large or run the other way; cell line not stated here;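 further: phosphodiesterase inhibitor Ro 20-1724 added with compounds to block cAMP breakdown; potency means the concentration at half of the fitted maximal effect; nearly all actives have a fitted effect of over 60% in size; about a fifth of the inactives were tested at one dose only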
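Cells in DMEM/10% FBS with G418 were pretreated with compounds in DMSO plus […] (300 uM stock) for 30 min at 37C. cAMP was measured by HTRF (cAMP-d2 plus anti-cAMP antibody-K) after 30 min at room temperature.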
TRPV1 potentiator = potentiators of human vanilloid receptor 1 (TRPV1) | potentiation, % at 8.33 µM | TRPV1-expressing cells, Fluo-8 calcium influx, capsaicin EC20 potentiation; host cell line not named in the record; control for the full effect not named in the record | actives 0.02% (n = 320,000); active means potentiation above 80%; inconclusive means 30% to 80%; inactive means below 30%; further: 0% is about no effect
Target sequence (Q8NER1 whole entry, looked up): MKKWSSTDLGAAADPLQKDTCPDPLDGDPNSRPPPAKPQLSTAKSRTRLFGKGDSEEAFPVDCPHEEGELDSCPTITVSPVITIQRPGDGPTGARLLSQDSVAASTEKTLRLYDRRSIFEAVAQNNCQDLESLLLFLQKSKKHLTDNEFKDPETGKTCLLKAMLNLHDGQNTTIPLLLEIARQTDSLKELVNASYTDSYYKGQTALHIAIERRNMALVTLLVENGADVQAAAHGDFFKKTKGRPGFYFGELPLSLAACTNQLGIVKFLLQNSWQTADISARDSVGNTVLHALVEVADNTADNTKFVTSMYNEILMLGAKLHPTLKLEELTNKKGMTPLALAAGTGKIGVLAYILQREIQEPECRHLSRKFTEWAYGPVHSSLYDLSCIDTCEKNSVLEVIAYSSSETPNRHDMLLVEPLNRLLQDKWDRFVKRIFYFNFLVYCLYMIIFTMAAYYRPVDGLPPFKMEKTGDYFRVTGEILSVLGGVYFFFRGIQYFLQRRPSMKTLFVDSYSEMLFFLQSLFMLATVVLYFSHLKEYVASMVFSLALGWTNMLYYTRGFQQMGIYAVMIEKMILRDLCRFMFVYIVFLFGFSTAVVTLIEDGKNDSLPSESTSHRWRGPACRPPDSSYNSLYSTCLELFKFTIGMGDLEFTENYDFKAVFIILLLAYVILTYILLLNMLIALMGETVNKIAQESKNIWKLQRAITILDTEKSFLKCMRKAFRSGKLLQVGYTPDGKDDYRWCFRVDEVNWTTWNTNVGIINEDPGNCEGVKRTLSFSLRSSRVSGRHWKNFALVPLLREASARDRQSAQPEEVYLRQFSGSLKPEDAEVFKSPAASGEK
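Cells expressing TRPV1 were dye-loaded with Fluo-8 and read kinetically: 10 s baseline, 3 min after compound (agonist portion), then 2 min after EC20 capsaicin (allosteric enhancer portion). Calcium-bound dye fluorescence at 480/520 nm.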
Sfp PPTase inh = blocks B. subtilis Sfp PPTase activity; Q9F4F7; Biochemical Sfp PPTase activity, qHTS; Potency, µM, for inactives: max response, negative = inhibition, usual class: inhibitors; actives 3.5% (n = 310,000); active means well fitted inhibition curve with a large enough effect; inconclusive means small, poorly fitted or top-dose-only effect, or another doubt; inactive means no such curve, though single readings can be large or run the other way;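 further: the enzyme is Sfp with the accession as filed and its product quenches rhodamine fluorescence; potency means the concentration at half of the fitted maximal effect; 0% = enzyme reaction without inhibitor and -100% = no enzyme wells; top concentration of the series not given in the record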
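Fluorescence-quenching assay: 15 nM Sfp-PPTase preincubated 15 min at room temperature with compound, then 5 uM rhodamine-CoA and 12.5 uM BHQ-2-labelled YbbR peptide added. Fluorescence (ex 525/em 598 nm) read at start and after 30 min; difference gives rate.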
gsp antagonist = antagonists of gsp mutant (McCune-Albright syndrome); gsp-mutant cells, cAMP HTRF, 30 min; control for the full effect not named in the record; Potency, µM (top dose mostly 76.9 µM), inactives show top-dose activity change, negative = inhibition, most hits filed as inhibitors; actives 0.4% (n = 340,000); AID 624288; active = falling curve of any shape with a large fitted effect; inconclusive = falling curve, mostly with a smaller effect; inactive = flat or rising curve; cell line not stated here;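 further: intracellular cAMP measured with PDE inhibitor Ro 20-1724 present during compound exposure; potency means the concentration at half of the fitted maximal effect; on the % scale 0 is the no-effect control and ±100 the full control effect; nearly all actives have a fitted effect of over 65% in size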
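G418-selected cells were plated in DMEM/10% FBS for 16-24 h at 37C, then treated with compounds plus the PDE inhibitor […] (300 uM solution added) for 30 min at 37C. Intracellular cAMP was measured by HTRF after 30 min lysis at room temperature.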
ClpP mod = qHTS Assay for Activators of ClpP. purified B. subtilis ClpP, FRET peptide cleavage, 20 min. ATP-dependent Clp protease proteolytic subunit (Bacillus subtilis (strain 168)), P80244. actives 1.9% (n = 340,000). Potency, µM (titrated, usually from 57.5 µM), inactives show at the top dose activity change, negative = active. AID 651965, 2013; active = well fitted falling curve with a large enough effect; inconclusive = small, poorly fitted or top-dose-only effect; inactive = no such curve, though single readings can be large or run the other way; further: potency means the concentration at half of the fitted maximal effect; the source files actives as falling curves though it sought activators and does not explain the sign; nearly all actives have a fitted effect of over 65% in size; many hits overshoot -100%
Target sequence (P80244 whole entry, looked up): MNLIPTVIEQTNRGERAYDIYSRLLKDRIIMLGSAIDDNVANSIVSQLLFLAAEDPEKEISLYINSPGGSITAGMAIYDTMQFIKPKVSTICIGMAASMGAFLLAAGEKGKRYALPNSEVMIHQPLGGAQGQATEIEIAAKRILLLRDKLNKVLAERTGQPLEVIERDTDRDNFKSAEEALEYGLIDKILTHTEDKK
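Purified B. subtilis ClpP, 10 microg/mL final in Tris/HCl pH8 with KCl, BSA, glycerol and Tween-20, cleaved an Abz/nitrotyrosine-quenched decapeptide. Fluorescence (ex 320, em 430) was read at 0 and 20 min at room temperature. Delta was normalized to 5.8 microM ADEP and DMSO/no-enzyme controls.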
Menin-MLL FL inh = displaces fluorescein MLL peptide from human menin. 290,000 tested, under 10 active. FP activity change, % at 61.4 µM. Fluorescence polarization, fluorescein-MLL peptide displacement from menin; inconclusive = falling polarisation curve, or a change in total fluorescence; inactive = total fluorescence flat and polarisation flat or rising; no compound was filed as active; the % refers to the polarisation; negative = inhibition;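 further: % of control where 0% means no effect; inhibitors lower the polarisation; unlabelled MLL peptide was the positive control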
* hit, by the source's call; ? = inconclusive; · = not tested or not shown; [ ] = another dose, or the depositor's remark. Random draw from the library; overall some 5.3% were active at least once.

SMILES	CtBP-E1A inh	gsp agonist	TRPV1 potentiator	Sfp PPTase inh	gsp antagonist	ClpP mod	Menin-MLL FL inh
CCC(C)C1Nc2ccc(C(=O)NCCc3ccc(OC)c(OC)c3)cc2NC1=O (stereo not given)	17.0	19.6%[15.4 µM]	0.2	8.4%	-34.7%	-4.4%	0.7
CCN(CC)c1ccc(S(=O)(=O)N2CCOCC2)cc1NC(=O)COC(=O)C1=COCCO1	0.0	4.0%[15.4 µM]	·	·	11.5%	·	·
COc1ccccc1C1C2=C(N=c3s/c(=C/c4cccc(OCC(=O)O)c4)c(=O)n31)c1ccccc1CC2 (stereo not given)	0.5	-2.8%	-1.3	79.4µM*	?	-9.3%	8.6
Cc1ccc(C(=O)NCC(=O)N(C)Cc2ccc(Cl)cc2Cl)s1	-0.2	-45.6%[inhibitor]	-10.7	·	5.1%	1.7%	·
Cc1ccc(S(=O)(=O)N2Cc3ccccc3CC2C(=O)Nc2cc(C)on2)cc1 (stereo not given)	0.0	-26.9%	-11.5	-2.9%	-13.2%	1.8%	-1.4
COCCNC(=S)N/N=C(\C)c1cccc(C(F)(F)F)c1	-5.2	41.0%	-15.1	-17.2%	2.4%	·	15.6
N#CC(c1ccccc1)C1CCN(Cc2ccccc2)CC1 (stereo not given)	-3.6	-12.0%	4.3	17.2%	9.3%	-2.3%	7.3
COc1ccc(CCN(C)C(=O)COc2ccc(N(C)S(=O)(=O)c3ccc(C)cc3)cc2)cc1OC	-6.8	5.1%	-4.0	·	-11.3%	-1.9%	·
COc1cc(C2CC(=O)c3cnc(N)nc3C2)cc(OC)c1OC (stereo not given)	-3.4	-35.7%[inhibitor]	0.3	-1.9%	-4.5%	0.5%	-1.3
Cc1cccc(NC(=S)N(CCc2ccncc2)C(C)C)c1C	7.3	?	0.1	-9.4%	1.6%	·	4.4
CCOc1ccccc1N1Cc2cc(C)c(C)cc2C1	-5.2	-16.4%	17.1	0.5%	-10.3%	2.4%	2.8
CCCCNC(=S)NNC(=O)c1csc(C)c1C	3.6	?	15.3	32.6%	6.1%	-2.0%	-1.2
CSc1ccc(/C=C(/NC(=O)c2ccco2)C(=O)N2CCCCC2)cc1	1.1	1.1%	29.4	9.1%	3.2%	1.5%	·
CCOC(=O)C1CCN(C(c2cccc(OC)c2)c2sc3nc(C)nn3c2O)CC1 (stereo not given)	-12.9	?	?	2.2%	0.4%	-2.7%	0.5
Cc1ccc(NC(=O)CN(C)CC(=O)Nc2c(C)cccc2C)c(Br)c1	3.0	25.0%	13.1	1.8%	-1.5%	0.8%	2.6

One compound at a time, from the list above. Values in the order: CtBP-E1A inh, gsp agonist, TRPV1 potentiator, Sfp PPTase inh, gsp antagonist, ClpP mod, Menin-MLL FL inh
`COc1ccccc1C1C2=C(N=c3s/c(=C/c4cccc(OCC(=O)O)c4)c(=O)n31)c1ccccc1CC2` (stereo not given) across the screens: 0.5, -2.8%, -1.3, 79.4µM*, ?, -9.3%, 8.6
`CCCCNC(=S)NNC(=O)c1csc(C)c1C` across the screens: 3.6, ?, 15.3, 32.6%, 6.1%, -2.0%, -1.2

Continued:
SMILES	CtBP-E1A inh	gsp agonist	TRPV1 potentiator	Sfp PPTase inh	gsp antagonist	ClpP mod	Menin-MLL FL inh
O=C(Nn1cnnc1)c1ccc(Cl)c(Cl)c1	·	3.1%	3.8	12.5%	1.8%	1.5%	-0.7
CCOC(=O)c1c(C)oc2c1c1c(c3ccccc32)OCN(Cc2ccccn2)C1	-16.4	-4.0%	-11.8	?	-4.9%	-2.9%	-28.2
COc1cc(OC)cc(C(=O)NCCCNC(=O)c2cccnc2)c1	3.8	3.2%	3.7	18.8%	9.1%	·	-0.4
Cc1ccc(CC(=O)Nc2cccc(C)n2)cc1	5.7	-23.1%	·	5.1%	4.5%	-1.6%	8.3
COc1ccccc1-c1nnc(-c2ccc(F)cc2)o1	9.4	16.0%[15.4 µM]	·	·	-21.7%	-0.4%	·
CCC(C)N1CC(C(=O)NC2CCCCC2)CC1=O (stereo not given)	5.7	17.3%	14.1	6.4%	1.5%	-1.1%	1.1
CCOC(=O)Cc1cc(=O)n2[nH]c(C(C)(C)C)cc2n1	-13.6	12.1%[15.4 µM]	?	4.6%	-2.3%	·	-1.1
O=C(CSc1cc(Cl)ccc1Cl)NCCCn1ccnc1	3.5	7.9%[15.4 µM]	?	7.6%	8.8%	·	-2.4
Cc1cccc(C)c1NC(=S)Nc1ccc(Cl)c(Cl)c1	4.7	0.2%	?	-2.0%	-7.5%	·	-4.5
Cc1cccn2c(=O)c3cc(C(=O)NCc4ccco4)c(=N)n(CCc4ccccc4)c3nc12	?	0.3%	-6.7	89.1µM*	-13.7%	·	7.7
Cc1cccc([C@@H]2[C@@H]3C(=O)N(Cc4ccccc4)C(=O)[C@@H]3[C@]3(CC(C)C)C(=O)N(c4cccc(Br)c4)C(=O)N23)c1	·	?	-4.8	16.4%	0.9%	0.4%	14.3
Cc1cc(C)c(NC(=O)CN2C(=O)NC(Cc3ccccc3)C2=O)c(C)c1 (stereo not given)	6.4	-21.8%[15.4 µM]	·	5.3%	2.9%	·	2.6
CCOc1ccc(NC(=O)c2ccc(Br)o2)c([N+](=O)[O-])c1	-1.5	17.4%	-19.0	3.0%	-3.5%	-1.5%	?
c1ccc2c(c1)OCC(c1nnc3sc(-c4ccc5c(c4)OCO5)nn13)O2 (stereo not given)	3.6	-14.9%	-8.9	25.1µM*	-3.8%	28.2µM*	-0.7
Cc1ncc([N+](=O)[O-])n1CC(=O)N/N=C/c1ccc(F)cc1	11.7	5.2%	-4.0	15.9%	-8.9%	0.5%	-2.7
c1ccc(Nc2nnc(SCc3cccc4ccccc34)s2)cc1	2.6	-38.2%[inhibitor]	16.4	-9.8%	-13.3%	-11.8%	2.3
COc1ccc(-c2cc(C(F)F)n3ncc(C(=O)N4CCN5CCCC5C4)c3n2)cc1 (stereo not given)	-0.2	-10.4%	?	7.7%	12.5%	?	6.7
NS(=O)(=O)c1ccc(CCNC(=O)COC(=O)C2CCCN2C(=O)c2cccs2)cc1 (stereo not given)	4.2	?	2.2	7.6%	11.2%	0.1%	1.1
Cc1sc2ncnc(OCC(=O)Nc3ccc4c(c3)OCCO4)c2c1C	0.1	11.5%	29.7	?	2.4%	-2.4%	5.9
Cc1cc(NC(=O)CSc2c3c(nc4ccccc24)CCC3)no1	-18.1	-0.7%	·	7.8%	10.7%	-2.4%	3.4
NC(=O)c1nc(-c2cccs2)nc2c1[nH]c(=O)n2-c1ccc(F)cc1	-3.4	?	-6.6	3.7%	-20.9%	?	0.8
CC(C)(C)OC(=O)CC[C@@H](C(=O)NCCCCCCCCCCC(=O)N1CCN(C(=O)OC(C)(C)C)CC1)n1cc(CCCCCNC(=O)OC(C)(C)C)nn1	-16.8	·	13.0	·	-3.2%	-5.5%	·
O=C(COc1ccc(F)cc1Cl)Nc1cc(S(=O)(=O)N2CCOCC2)ccc1N1CCCCC1	-7.0	-22.8%	7.8	7.2%	-23.9%	-25.0%	16.3
CC(=NO)C1CCC2C3CCC4=CC(=NO)CCC4(C)C3C(=O)CC12C (stereo not given)	8.2	-32.8%[inhibitor]	·	·	-22.2%	·	·
Brc1ccc2oc(-c3ccn[nH]3)cc2c1	1.3	15.5%[15.4 µM]	12.8	22.3%	0.8%	·	3.8
CC(C)(C)C(=O)NC(=S)Nc1ccccc1F	6.8	-28.1%	-7.0	15.9%	15.7%	1.0%	-2.3
Cc1cccc(-n2c(C)cc(/C=N\NC(=O)c3cccs3)c2C)c1	-0.2	-6.2%	-17.9	-5.5%	15.4%	-9.5%	1.5
CC(=O)CSc1nc(-c2ccccc2)c(-c2ccccc2)o1	15.9	-20.1%	-10.1	-11.8%	1.8%	28.2µM*	-0.4
CCOc1ccccc1NC(=O)COC(=O)/C=C/c1ccc(OC)c(OC)c1	21.3	27.9%[15.4 µM]	3.0	-3.2%	·	·	-0.9
Cc1c(C)c2ccc(OCC(=O)NC3CCN(Cc4ccccc4)CC3)c(C)c2oc1=O	1.5	-19.1%	-20.3	4.3%	-0.4%	3.7%	·
CCCCc1cc(=O)oc2cc(OCC(=O)N3CCC(C(N)=O)CC3)ccc12	3.1	?	-2.4	-2.6%	2.4%	4.2%	1.2
O=C(CCN1C(=O)C2CCCCC2C1=O)Nc1ccc(OC(F)F)cc1 (stereo not given)	-4.1	27.4%	0.8	·	13.8%	-0.2%	·
CCN(CC)C(=O)c1nc(-c2cccc3ccccc23)no1	-13.3	0.4%	·	·	·	?	·
Cc1ccc(S(=O)(=O)N2CCSC2)cc1C	-17.1	-62.7%	14.3	8.7%	-33.6%	-1.3%	-0.8
Clc1ccc(-c2nc(-c3cnccn3)no2)cc1	4.3	14.9%[15.4 µM]	-2.1	15.6%	7.2%	·	9.9
COc1ccccc1-n1c(CNC(=O)c2cccc([N+](=O)[O-])c2C)n[nH]c1=S	1.6	-4.6%	?	14.6%	6.4%	·	-2.2
O=P(O)(OCc1ccccc1)OCc1ccccc1	2.6	·	-5.9	·	0.1%	1.3%	·
CC1CCCN(C(=O)CCc2ccccc2)C1 (stereo not given)	3.1	3.3%	-13.1	-2.0%	3.5%	0.6%	0.4
COc1ccc(NS(=O)(=O)c2ccc(C)c(NC(=O)C3CCCO3)c2)cc1 (stereo not given)	-5.8	7.3%[15.4 µM]	20.1	·	1.6%	-1.3%	·
Cc1c(C(=O)N2CCCCC2)c(S(=O)(=O)NCCc2ccc(Cl)cc2)c(C)n1C	·	-9.6%	10.2	18.7%	-2.6%	2.1%	1.1
CCCCCCCCCCCCCCCC(=O)OCC1OC(n2ccc(N)nc2=O)C(O)C1O (stereo not given)	3.9	26.0%	·	·	13.9%	1.1%	·
Cc1cc(NC(=O)CSc2nc3ccccc3cc2C#N)no1	0.8	-2.3%[15.4 µM]	-0.5	-11.6%	-19.3%	·	?
COC(=O)[C@@H](NC(=O)CCc1nnc(-c2ccsc2)o1)C(C)C	6.6	-23.5%[15.4 µM]	1.5	2.3%	2.3%	·	-3.9
COc1ccc(CNC(=O)COC(=O)c2cncc(Br)c2)cc1	2.4	8.6%[15.4 µM]	-20.6	13.9%	3.8%	·	-10.0
